Screening data: PubChem, National Center for Advancing Translational Sciences (NCATS)
Rango dissoc inh = inhibition of RanGTP-driven Rango-importin beta dissociation; O95149+P62826; Biochemical FRET Rango-importin beta, RanGTP-induced dissociation; Potency, µM (highest dose often 46.1 µM), without a hit: at the highest dose activity change, negative = inhibition; actives 0.071% (n = 340,000); AID 540253; active means falling FRET ratio curve, often poorly fitted, with flat reads before Ran was added; inconclusive means other falling curves, or compound fluorescence or quenching; inactive means flat or rising ratio curve;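 further: potency means the concentration at half of the fitted maximal effect; % of control where 0% means no effect; nearly all actives have a fitted effect of over 45% in size; -100% = wells without RanGTP and RCC1; the record marks most hits as doubtful in a second field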
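Quantitative HTS using a FRET biosensor: 0.1 uM Rango, 0.25 uM importin beta, 0.6 uM Ran, 2 mM GTP, 0.2 uM RCC1 final, PBS with DTT, Tween-20 and BSA. Post-read taken 45 min after Ran addition.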
miR-21 reporter = miR-21 reporter, rising signal; HeLa miR-21 FLuc reporter, luciferase, 48 h; Potency, µM (titrated, usually from 38.3 µM), inactives show at the top dose reporter change, positive = more light; 340,000 tested, under 10 active; active = well fitted rising curve with a large enough effect; inconclusive = small, poorly fitted or top-dose-only effect; inactive = no such curve, though single readings can be large or run the other way;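 further: % of control where 0% means no effect; miR-21 action dims this reporter so a rising signal means less miR-21 action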
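HeLa cells stably expressing CMV-driven firefly luciferase with a downstream miR-21 binding sequence, endogenously expressing miR-21, were treated with titrations (up to about 40uM final) for 48 hours at 37 degree Celsius. Luciferase luminescence was read after lysis.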
Rango-impB inh = prevents formation of the Rango-importin beta complex; Q14974; Rango CFP/YFP FRET sensor + importin beta, 45 min; Potency, µM (series often up to 92.2 µM), inactives show at the highest dose inhibition of complex formation; actives 0.031% (n = 340,000); AID 540263; active = rising FRET ratio curve, often small or poorly fitted; inconclusive = mostly compound fluorescence or quenching in the first reads; inactive = flat curves in all reads;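 further: potency means the concentration at half of the fitted maximal effect; 0% = DMSO wells and 100% = buffer wells lacking importin beta; nearly all actives have a fitted effect of over 15% in size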
Target sequence (Q14974 whole entry, looked up): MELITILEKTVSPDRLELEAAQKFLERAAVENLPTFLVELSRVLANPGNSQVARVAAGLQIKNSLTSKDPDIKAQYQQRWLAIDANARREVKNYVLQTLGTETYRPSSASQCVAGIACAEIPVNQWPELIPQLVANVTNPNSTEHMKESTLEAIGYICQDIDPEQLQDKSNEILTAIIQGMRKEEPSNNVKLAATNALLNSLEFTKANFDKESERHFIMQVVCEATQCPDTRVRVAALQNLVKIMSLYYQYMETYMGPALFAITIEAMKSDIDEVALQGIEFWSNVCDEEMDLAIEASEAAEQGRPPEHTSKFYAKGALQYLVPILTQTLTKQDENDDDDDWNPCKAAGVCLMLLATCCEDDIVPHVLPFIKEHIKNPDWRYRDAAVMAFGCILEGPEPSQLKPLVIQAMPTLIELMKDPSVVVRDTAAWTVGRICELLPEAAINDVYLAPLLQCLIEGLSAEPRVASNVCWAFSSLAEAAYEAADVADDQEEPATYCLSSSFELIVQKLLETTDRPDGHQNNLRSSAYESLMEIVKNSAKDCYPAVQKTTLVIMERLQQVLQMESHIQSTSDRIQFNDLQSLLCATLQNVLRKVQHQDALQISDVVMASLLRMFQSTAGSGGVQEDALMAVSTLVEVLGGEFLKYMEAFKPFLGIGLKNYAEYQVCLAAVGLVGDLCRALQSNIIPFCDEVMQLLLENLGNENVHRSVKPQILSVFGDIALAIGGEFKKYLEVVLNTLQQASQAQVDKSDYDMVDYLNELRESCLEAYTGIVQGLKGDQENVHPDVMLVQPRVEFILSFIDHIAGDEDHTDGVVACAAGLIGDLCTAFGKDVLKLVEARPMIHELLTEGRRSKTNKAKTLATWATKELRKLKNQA
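FRET biosensor (snurportin 1 IBB flanked by EYFP and cerulean), 50 nM, with compound 5 min, then 0.125 microM importin beta in PBS, 1 mM DTT, 0.02% Tween-20, 0.1% BSA. CFP/YFP ratio read after 45 min at room temperature; pre-read flags interference.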
GLA inh pH 4.5 = blocks human alpha-galactosidase A at pH 4.5. P06280. purified enzyme, 4-MU-alpha-Gal fluorescence, pH 4.5. activity change, negative = inhibition, % at 105 µM. 230,000 tested, under 10 active; inconclusive = small, poorly fitted or top-dose-only inhibition, or a rising curve; inactive = flat fitted curve, though single readings scatter; no compound was filed as active;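 further: 0% = full activity with enzyme and -100% = basal without enzyme; dose as in the result columns while the protocol names 77 µM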
* = called active by the depositor; ? = inconclusive; / = no result given; [ ] = remark or other dose. This is a subset, so the mix of outcomes need not match the whole.

Values run as follows: Rango-impB inh | Rango dissoc inh | miR-21 reporter | GLA inh pH 4.5
CCc1ccc(NC(=S)NC(=O)c2c(-c3ccccc3Cl)noc2C)cc1
 : -0.1% | 14% | 2% | 4
O=C(Nc1ccccc1)N1CCCc2ccccc21
 : 2.0% | 9% | -21% | 5
COc1ccc(-c2nncnn2)cc1
 : -2.7% | ? | -22% | 8
CN(C)c1ccc(/C=C2\Oc3ccc(C#Cc4cccc(N)c4)cc3C2=O)cc1
 : ? | ? | / | /
COc1ccc(O[C@H]2C=C[C@@H](c3ccccc3)O[C@@H]2COC(=O)CC/C(C)=N/O[C@@H](C)c2cc(-c3c(C)cc(C)cc3C)no2)cc1
 : / | / | -4% | -11
COc1cc2nc(C(C)(C)C)oc(=O)c2cc1OC
 : -4.5% | 3% | -2% | 3
CCCC(=O)Nc1nc(-c2ccccc2)c(CC)s1
 : 7.9% | -2% | 4% | 5
Cc1ccc2cc(-c3noc(C(C)(C)C)n3)c(=O)[nH]c2c1
 : 2.1% | 4% | -5% | 5
Cc1ccc(CN2CC(C(=O)N(CC(C)C)c3c(N)n(Cc4ccccc4)c(=O)[nH]c3=O)CC2=O)cc1 (centres undefined)
 : 0.0% | 1% | / | /
CC1=C(C(=O)OC(C)(C)C)C(c2ccc(Br)cc2)NC(=O)N1CCCC(=O)O (centres undefined)
 : 1.5% | 6% | -1% | /
CNc1cc(Cl)nc(SC)n1
 : -0.1% | 2% | -9% | 2
CSc1cccc(NC(=S)N2CCCN(Cc3ccccc3F)C2)c1
 : -1.2% | -4% | -10% | -6
CCCCCC(=O)N/N=C/c1ccccc1[N+](=O)[O-]
 : -0.3% | -10% | -25% | 0
CN(C)CCN(C(=O)c1ccc(C(=O)c2ccccc2)cc1)c1nc2cc3c(cc2s1)OCO3
 : -3.9% | 9% | -15% | /
O=c1c2ccccc2n(Cc2ccccc2F)c(=O)n1Cc1ccccc1F
 : 0.5% | 1% | -10% | -3
Cc1cc(=O)c2cc(NC(=O)c3ccccc3Cl)ccc2[nH]1
 : 2.7% | 11% | -4% | /
Cc1ccc(-c2cc3c(N=O)c4ccccc4c-3n[nH]2)cc1
 : 1.1% | -1% | ? | -5
Cc1ccc(OCC(=O)Nc2ccc(-c3nc4ncccc4o3)cc2)c(C)c1
 : 0.4% | 0% | -20% | 7
CC1(NC(=S)NCCCCCCNC(=S)NC2(C)CCS(=O)(=O)C2)CCS(=O)(=O)C1 (centres undefined)
 : 2.2% | -21% | 1% | -12
CCCc1cc(=O)[nH]c(SCC(=O)NC(=O)NC2CCCC2)n1
 : -0.3% | 9% | / | /
O=C(CSc1nncn1-c1ccccn1)Nc1ccccc1Cl
 : 3.9% | -7% | -5% | /
CC(=O)Nc1ccc(NC(=O)CC2CCCC2)cc1
 : -1.8% | 0% | -21% | /
CCOCC(=O)N1CCCC(C(=O)OCC)C1 (centres undefined)
 : 1.8% | -13% | 8% | -7
CCOC(=O)c1c(C)c(C(=O)NCCOC)c(C)n1CC
 : -2.9% | -7% | -6% | 1
CCOc1ccc(CCNC(=O)c2ccc(C)c(S(=O)(=O)N3CCOCC3)c2)cc1OCC
 : 2.3% | 1% | / | /
CS(=O)(=O)N1CCN(c2ccc(C(=O)NC34CC5CC(CC(C5)C3)C4)cc2[N+](=O)[O-])CC1
 : 0.4% | -5% | -3% | -6
Cc1ccc(NC(=O)[C@H](C)NC(=O)C2CCN(C(=O)[C@@H](N)CC(C)C)CC2)cc1
 : -1.1% | -2% | -5% | /
CCOCCn1c(SCc2ccc(F)cc2)nc2c1c(=O)[nH]c(=O)n2C
 : -2.5% | 9% | -16% | -2
COc1ccccc1NC(=O)CSc1nnc(-c2ccoc2C)n1CCc1ccccc1
 : -2.2% | 33% | 4% | -6
CCOc1cc(NC(=S)NCCCN2CCOCC2)c(OCC)cc1NC(=O)c1cccc(C)c1
 : -1.5% | 12% | 1% | -22
Cc1cccc(CN2CCCC(C(=O)Nc3ccc(-c4cscn4)cc3)C2)c1 (centres undefined)
 : 2.0% | 3% | 19% | /
COc1ccc(-c2ccc(C(=S)N3CCN(C(C)=O)CC3)o2)cc1
 : -0.6% | -12% | -20% | 1
CCCN(CCC)S(=O)(=O)c1ccc(C(=O)Nc2ccc(OCC(=O)N3CCOCC3)cc2)cc1
 : 1.6% | -9% | 23% | 1
CC(=O)c1sc(Nc2ccc(C)cc2)nc1C
 : -0.6% | 2% | -4% | 1[21.1 µM]
Cc1ccccc1Nc1nc(N)nc(CN(C)c2ccccc2)n1
 : 0.7% | 13% | -47% | -2
O=C1Nc2ccccc2C(=O)N2[C@H](c3ccccc3)[C@@H]3C(=O)N(Cc4ccccc4)C(=O)[C@@H]3[C@H]12
 : -4.3% | -14% | -2% | /
COC(=O)c1c(C)oc(C)c1S(=O)(=O)NC(c1ccccc1)c1ccccc1
 : 0.0% | 36% | 6% | -6
COc1ccc(N2CCN(C(=O)Cc3ccc(Br)cc3)CC2)cc1
 : -0.6% | 18% | -9% | -1
COc1ccccc1-c1nnc2sc(-c3cc4ccccc4o3)nn12
 : -0.3% | 5% | 18% | 11
CCOC(=O)c1ccc(OCc2c(C)noc2C)cc1
 : 1.9% | 12% | -7% | 1
O=C(CSc1nc(-c2ccccc2)cc(C(F)(F)F)n1)NCCN1CCOCC1
 : 4.6% | 8% | -1% | -5
O=C(NCc1ccc(F)cc1)C1CCN(S(=O)(=O)N2CCOCC2)CC1
 : ? | 6% | 0% | 3[21.1 µM]
CCOC(=O)CNc1ncc([N+](=O)[O-])cc1C#N
 : -0.1% | 1% | 1% | 6
COc1ccc(S(=O)(=O)N2CCOCC2)cc1NC(=O)CCNC(=O)c1ccc(Cl)cc1
 : -1.8% | -1% | / | /
O=C(O)CCSCCC(=O)O
 : -0.1% | 24% | 2% | /
O=C(NCCc1cccc(Cl)c1)c1ccc(Cl)c([N+](=O)[O-])c1
 : -0.4% | -6% | -19% | -3
CSCCCN1CCCC(CO)(Cc2ccc(F)cc2)C1 (centres undefined)
 : -1.3% | 0% | 6% | /
CC1CCCCC1NC(=O)C1CC(=O)N(Cc2ccccc2)C1 (centres undefined)
 : -0.4% | ? | 1% | /
NC(=O)COc1cc2oc(=O)c3c(c2cc1Cl)CCCC3
 : 0.1% | 7% | -5% | /
CCOC(=O)N1CCN(C(=O)CSc2nnc(-c3cccc(OC)c3)o2)CC1
 : -0.2% | 10% | -2% | 9
CCOc1cc(C#N)c(NC(=O)Cn2nnc3ccccc32)cc1OCC
 : -0.2% | 29% | -2% | 2
CCO[C@H]1OC(C(=O)N2CCN(Cc3ccc4c(c3)OCO4)CC2)=C[C@@H](c2cn(C(C)=O)c3ccccc23)[C@@H]1CCCO
 : 0.2% | 13% | 14% | -2
O=C(O)C1C2CCC(O2)C1C(=O)Nc1ccccc1Br (centres undefined)
 : -1.0% | -21% | -14% | /
O=C(CN1CCNCC1)Nc1ccccc1Cl
 : 0.3% | -1% | -3% | 4
Oc1nc(Nc2ccc(Cl)cc2Cl)sc1/C=C1\C=Nc2ccccc21
 : 4.9% | -3% | -6% | -24
Cc1csc(SCc2nnc(-c3ccccc3Br)o2)n1
 : -0.1% | -2% | -42% | 10
CC(=O)C1=C(O)C(=O)N(c2ccc(Br)cc2)C1c1ccc(Cl)cc1 (centres undefined)
 : -4.7% | -18% | -3% | /
CC(C)(C)NC(=O)NC(=O)CSc1cccc(C(F)(F)F)c1
 : 1.2% | 6% | 3% | -6
O=C(CCC(=O)N1CCOc2ccc(Cl)cc21)NCCCN1CCOCC1
 : 4.3% | 15% | 0% | /
Cc1ccc(-c2nc(CSCC(=O)NC3CCN(Cc4ccccc4)CC3)c(C)o2)cc1
 : -1.1% | -2% | 26% | /

Next records.
Values run as follows: Rango-impB inh | Rango dissoc inh | miR-21 reporter | GLA inh pH 4.5
COc1cc(/C=C2/SC(=S)N(C)C2=O)ccc1OC(=O)c1ccco1
 : 15% | 16% | -5% | -2
CC(C)(C)n1nnnc1C(c1ccc2ncccc2c1)N1CCC(O)CC1 (centres undefined)
 : -1.1% | 2% | 3% | -2
O=C(c1ccccc1)C(CCC(CN1CCOCC1)C(=O)c1ccccc1)CN1CCOCC1 (centres undefined)
 : -0.3% | 0% | ? | -12
COc1ccc(/C=C2\SC(N3CCc4ccccc4C3)=NC2=O)cc1OC
 : ? | 2% | -16% | -10
Cc1noc(C)c1COc1ccc(C(=O)N(C)CCOc2ccccc2)cc1
 : -2.8% | 0% | / | /
COc1ccc(Nc2nc(CN3CCOCC3)nc3sc4c(c23)CCC(C)C4)cc1OC (centres undefined)
 : / | / | -10% | 2
CC(=O)N(C)c1ccc(NC(=O)Cc2cccs2)cc1
 : 0.6% | ? | -31% | /
COc1ccc(NC(=O)C2=CC(c3ccc(OC)c(OC)c3)=NS(=O)(=O)N2C)cc1
 : -0.5% | -2% | ? | /
Cc1ccc(O)c(N=Cc2ccc(C)s2)c1
 : 2.7% | 15% | -38% | 2
c1ccc(-c2cnn3c(-c4ccccc4)c(-c4ccccc4)nc3n2)cc1
 : ? | ? | 1% | 1
O=C(NCCN1CCOCC1)c1ccc(Cl)c(S(=O)(=O)N2CCCCCC2)c1
 : 0.4% | 1% | 10% | 17
CC/C(=C\C(=O)c1ccncc1)Nc1ccc(O)cc1
 : -2.2% | 3% | -7% | -14
O=c1ccc(-c2ccccc2)no1
 : -1.7% | 1% | -4% | 1
O=C(C1CC(=O)N(c2ccc(F)cc2)C1)N1CCC(c2nc3ccccc3[nH]2)CC1 (centres undefined)
 : 2.1% | -14% | / | /
COc1ccc(/C=C/CN2CCCC(CCC(=O)NCc3ccc(F)c(F)c3)C2)cc1 (centres undefined)
 : -0.5% | -9% | -8% | -17
COC(=O)Nc1ccc(S(=O)(=O)N2CCCC(C(=O)Nc3cccnc3)C2)cc1 (centres undefined)
 : 1.0% | -3% | 7% | -6
COC(=O)C1SCCN1S(=O)(=O)c1ccc(Cl)cc1 (centres undefined)
 : 1.1% | -1% | / | /
CCn1c(CSc2nnc3ccccn23)nc2cc(C(=O)O)ccc21
 : -1.8% | 22% | -3% | 6
Nc1cc(C(F)(F)F)cc2c1SCC(=O)N2
 : -0.5% | -7% | -8% | 4

Rewritten as tab-separated lines: part of the list above.
smiles	Rango-impB inh	Rango dissoc inh	miR-21 reporter	GLA inh pH 4.5
COc1cc(/C=C2/SC(=S)N(C)C2=O)ccc1OC(=O)c1ccco1	15%	16%	-5%	-2
CC(C)(C)n1nnnc1C(c1ccc2ncccc2c1)N1CCC(O)CC1 (centres undefined)	-1.1%	2%	3%	-2
O=C(c1ccccc1)C(CCC(CN1CCOCC1)C(=O)c1ccccc1)CN1CCOCC1 (centres undefined)	-0.3%	0%	?	-12
COc1ccc(/C=C2\SC(N3CCc4ccccc4C3)=NC2=O)cc1OC	?	2%	-16%	-10
Cc1noc(C)c1COc1ccc(C(=O)N(C)CCOc2ccccc2)cc1	-2.8%	0%	/	/
COc1ccc(Nc2nc(CN3CCOCC3)nc3sc4c(c23)CCC(C)C4)cc1OC (centres undefined)	/	/	-10%	2
CC(=O)N(C)c1ccc(NC(=O)Cc2cccs2)cc1	0.6%	?	-31%	/
COc1ccc(NC(=O)C2=CC(c3ccc(OC)c(OC)c3)=NS(=O)(=O)N2C)cc1	-0.5%	-2%	?	/
Cc1ccc(O)c(N=Cc2ccc(C)s2)c1	2.7%	15%	-38%	2
c1ccc(-c2cnn3c(-c4ccccc4)c(-c4ccccc4)nc3n2)cc1	?	?	1%	1
O=C(NCCN1CCOCC1)c1ccc(Cl)c(S(=O)(=O)N2CCCCCC2)c1	0.4%	1%	10%	17
